# Source: PubChem BioAssay
# NS1 function inh = qHTS Assay for Inhibitors of Influenza NS1 Protein Function | 0.4% of 270,000 active | S. cerevisiae slowed by influenza A NS1, growth recovery by OD600 | Potency, µM (series often up to 46.1 µM), for the others: at the highest dose activity, positive = more growth | AID 2326, 2010; further: actives are rising curves; nearly all actives have a fitted effect of over 50% in size
#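 Compounds were scored for reversing the slow growth caused by influenza A NS1 in S. cerevisiae, measured by optical density at 600 nm. Assay medium contained 2% galactose at pH 6.0; NS1-free yeast of the same strain were the positive control.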
# Marburg entry inh = qHTS for inhibitors of binding or entry into cells for Marburg Virus; Marburg virus pseudotyped entry inhibition, cell reporter; control for the full effect not named in the record; about a third of the inactives were read at about 46 µM; Potency, µM (doses to about 37.8 µM), for the others: top-dose activity change, negative = inhibition, hits mostly inhibitors; 1.8% of 300,000 active; AID 540276, 2011; active = well fitted inhibition curve with a large enough effect; inconclusive = small, poorly fitted or top-dose-only effect, or effect the other way; inactive = flat fitted curve, though single readings scatter; tested in HEK293 cells; about a fifth of its hits are not listed in these tables; further: on the % scale 0 is the no-effect control and ±100 the full control effect; luciferase read-out
# SARS PLpro yeast = qHTS of Yeast-based Assay for SARS-CoV PLP. Potency, µM (titrated, usually from 32.9 µM), inactives show at the highest dose activity, positive = growth rescue. S. cerevisiae expressing SARS-CoV PLpro, growth rescue; control for the full effect not named in the record. 0.19% of 330,000 active; further: 0% is about no effect; nearly all actives have a fitted effect of over 55% in size; growth read by luminescence after 48 h
# 2A StopGo = High Throughput Screening for Foot and Mouth Disease Virus Antivirals; Potency, µM (series often up to 57.9 µM), for inactives: at the highest dose signal change, negative = less light; AID 1159524, 2015; human cells with a luciferase reporter of 2A StopGo recoding; control for the full effect not named in the record; 1.2% of 410,000 active; active = well fitted falling curve with a large enough effect; inconclusive = small, poorly fitted or top-dose-only effect; inactive = no such curve, though single readings can be large or run the other way; tested in HEK293T cells; further: on the % scale 0 is the no-effect control and ±100 the full control effect; nearly all actives have a fitted effect of over 45% in size; luciferase light after 4 h
# Cruzain inh noDet = qHTS Assay for Promiscuous and Specific Inhibitors of Cruzain (without detergent). purified cruzain, Z-FR-AMC fluorescence, no detergent. 2.3% of 200,000 active. AID 1476, 2009. Cruzipain (Trypanosoma cruzi), P25779. Potency, µM, for the others: max response, negative = inhibition, most hits filed as inhibitors; active means well fitted curve in the direction sought with a large enough effect; inconclusive means small, poorly fitted or top-dose-only effect, or another doubt; inactive means no such curve, though single readings can be large; an effect the other way counts as inactive or inconclusive;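 further: plate controls were enzyme without inhibitor for no effect and buffer without enzyme for full effect; nearly all actives have a fitted effect of over 40% in size; top concentration of the series not given in the record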
# Target sequence (P25779 123-467 limits assumed): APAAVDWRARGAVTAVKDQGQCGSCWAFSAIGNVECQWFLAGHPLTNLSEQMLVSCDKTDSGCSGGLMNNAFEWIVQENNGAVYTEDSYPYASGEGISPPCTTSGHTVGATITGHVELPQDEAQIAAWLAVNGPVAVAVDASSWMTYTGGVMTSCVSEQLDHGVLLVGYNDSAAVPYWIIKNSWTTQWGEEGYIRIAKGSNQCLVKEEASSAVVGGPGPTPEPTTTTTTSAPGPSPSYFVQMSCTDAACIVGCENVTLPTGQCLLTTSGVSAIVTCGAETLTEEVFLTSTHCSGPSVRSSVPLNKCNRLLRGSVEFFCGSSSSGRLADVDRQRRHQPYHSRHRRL
#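 Purified cruzain at 1.5 nM, pre-incubated 15 min with compound at room temperature in 100 mM sodium acetate pH 5.5, 5 mM DTT, 0.00005% Triton X-100. Reaction started with 2 uM Z-FR-AMC; AMC fluorescence increase over 60 s gives rate.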
# Lassa entry inh = qHTS for Inhibitors of binding or entry into cells for Lassa Virus | Lassa virus pseudotype entry inhibition, cell reporter; control for the full effect not named in the record | Potency, µM (top dose mostly 37.9 µM), without a hit: top-dose activity change, negative = inhibition, actives largely listed as inhibitors | 1.2% of 300,000 active; active means well fitted inhibition curve with a large enough effect; inconclusive means small, poorly fitted or top-dose-only effect, or effect the other way; inactive means flat fitted curve, though single readings scatter; tested in HEK293 cells; further: on the % scale 0 is the no-effect control and ±100 the full control effect; nearly all actives have a fitted effect of over 50% in size; luciferase read-out
# RE007 growth inh = qHTS Assay for Inhibitors of the HIV-1 protein Vpr | Potency, µM (series often up to 92.2 µM), for inactives: top-dose activity change, negative = less growth | AID 651644, 2012 | 0.21% of 360,000 active | S. pombe RE007 Vpr strain, BacTiter-Glo ATP luminescence, 24 h; control for the full effect not named in the record; active = well fitted falling curve with a large enough effect; inconclusive = small, poorly fitted or top-dose-only effect; inactive = no such curve, though single readings can be large or run the other way;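 further: on the % scale 0 is the no-effect control and ±100 the full control effect; nearly all actives have a fitted effect of over 50% in size; the assay follows cell death caused by Vpr and the record does not say whether a fall means rescue or toxicity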
#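 Fission yeast RE007 carrying one integrated HIV-1 vpr copy, seeded at OD 0.01 in PMG+AL medium with 23 nL pinned compound. Grown 24 h at 30 degrees; viability read by BacTiter-Glo luminescence after 5 min.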
# Cruzain inh Det = qHTS Assay for Promiscuous and Specific Inhibitors of Cruzain (with detergent); purified cruzain, Z-FR-AMC fluorescence, 0.01% Triton; 0.43% of 200,000 active; Cruzipain (Trypanosoma cruzi), P25779; Potency, µM, for inactives: max response, negative = inhibition, usual class: inhibitors; active means well fitted curve in the direction sought with a large enough effect; inconclusive means small, poorly fitted or top-dose-only effect, or another doubt; inactive means no such curve, though single readings can be large; an effect the other way counts as inactive or inconclusive;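 further: plate controls were neutral wells for no effect and buffer without enzyme for full effect; nearly all actives have a fitted effect of over 40% in size; top concentration of the series not given in the record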
#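 Purified cruzain (1.5 nM final) was preincubated with compounds for 15 min at room temperature in 100 mM sodium acetate pH 5.5, 5 mM DTT, 0.01% Triton X-100. Reaction started with 2 uM Z-FR-AMC; AMC fluorescence change over 60 s gave activity.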
# An asterisk follows results filed as active; u = inconclusive; x = not tested or not shown; & = joins results of further samples; [ ] = remark or other dose. Unless noted, the call rests on the fitted dose curve; in most records, active means well fitted rising curve with a large enough effect; inconclusive means small, poorly fitted or top-dose-only effect; inactive means no such curve, though single readings can be large or run the other way. Potency means the concentration at half of the fitted maximal effect.
SMILES,NS1 function inh,Marburg entry inh,SARS PLpro yeast,2A StopGo,Cruzain inh noDet,Lassa entry inh,RE007 growth inh,Cruzain inh Det
O=S(=O)(NCc1ccc(F)cc1)c1ccc(-n2cnnn2)cc1,0%,x,2%,42%[activator],x,x,1%,x
Cc1ccccc1Nc1c(-c2ccc(Cl)s2)nc2cccc(C)n12,x,1%[46.1 µM],x,-1%,-4%,22%[46.1 µM],x,-5.5%
CCN(CC)C(=O)n1nc(C)c(CN2C(=O)c3ccccc3C2=O)c1C,x,3%,x,-16%,x,1%,-12%,x
Cc1cccc(N2CN=c3s/c(=C\c4ccncc4)c(=O)n3C2)c1,6%,-1%&-1%,-1%,2%,u,9%,-5%,-1.5%
COc1ccc(S(=O)(=O)N2CCCC2CNC(=O)c2cccc(OC)c2)cc1 (stereo unspecified),x,21%,-2%,6%,x,-14%[46.1 µM],8%,x
CC(NC(=O)C(=O)N/N=C\c1cccc([N+](=O)[O-])c1)c1ccccc1 (stereo unspecified),8%,4%[46.1 µM],0%,40%[activator],x,x,0%,x
O=S1(=O)CCN(OCc2ccc(Cl)cc2)CC1,x,2%[46.1 µM],1%,-5%,x,11%[46.1 µM],-4%,x
O=C(Cn1c(SCCOc2ccc(Cl)cc2)nc2ccccc21)N1CCCCC1,x,7%[46.1 µM],x,0%,15%,0%[46.1 µM],x,-0.3%
Cc1cc(-c2ccc(C)c(S(=O)(=O)N3CCN(c4ccc([N+](=O)[O-])cc4)CC3)c2)on1,5%,u,6%,-24%,x,u,-6%,x
CCOC(=O)CSCc1c(C#N)c2ccccc2n1C,-5%,17%,-3%,8%,10%,-5%,-21%,-2.4%
O=C(COc1ccccc1)N1CCCCCCC1,5%,7%,1%,-3%,x,17%,-3%,x
COc1ccc(CCNC(=O)COC(=O)Cc2cccc3ccccc23)cc1,-48%,22%&22%,-27%,-14%,16%,3%,17%,-0.7%
CC1Oc2ccccc2N(CC(=O)Nc2ccc3c(c2)OCO3)C1=O (stereo unspecified),3%,21%,2%,-5%,1%,-9%,20%,4.7%
COc1ccccc1NC(=O)CC1Nc2ccccc2NC1=O (stereo unspecified),16%,-8%,0%,-6%,u,-1%,-5%,-1.5%
COc1cccc(C(C(=O)NCC2CCCO2)N(C(=O)Cn2nnc3ccccc32)c2ccc(NC(C)=O)cc2)c1 (stereo unspecified),-1%,2%[46.1 µM],-3%,20%,x,4%[46.1 µM],-25%,x
COc1cc(NS(=O)(=O)c2ccc(NC(=S)NC(=O)c3ccco3)cc2)ncn1,-1%,22%[46.1 µM],-2%,65%[activator],x,0%,-13%,x
CCCc1nc(Nc2nc3ccccc3o2)nc(C)c1C(=O)OCC,-3%,-28%,1%,-10%,4%,-7%,7%,-0.5%
COc1cccc(NC(=O)N(C2CCCCC2)C(C)c2cccs2)c1 (stereo unspecified),0%,2%,5%,21%,-1%,5%,7%,-0.6%
Cc1c(N=C2NC(=O)/C(=C/c3cccc([N+](=O)[O-])c3)S2)c(=O)n(-c2ccccc2)n1C,-4%,-17%,1%,x,12%,7%,x,-3.0%
COCCOC(=O)c1c(C)n(C)c2ccc(OC(=O)c3ccccc3OC)cc12,0%,x,-3%,-5%,x,x,-5%,x
N/C(Cc1ccc([N+](=O)[O-])cc1)=N\OC(=O)c1ccc2ccccc2c1,-92%,u,-6%,0%,u,u,4%,-4.6%
CCOC(=O)Nc1ccc(=O)n(Cc2c(Cl)cccc2Cl)c1,13%,-1%,-5%,-9%,-9%,7%,-3%[3.69 µM],-2.5%
COc1ccc(N2CCN(C(=O)C3CCCN(c4ncnc5c4nc4n5CCCCC4)C3)CC2)cc1 (stereo unspecified),-28%,-21%[46.1 µM],-2%,-28%,x,u,13%,x
N#C/C(=C\c1ccccc1Cl)C(=O)Nc1ccccn1,5%,u,1%,0%,x,24%[46.1 µM],4%,x
CCn1ccnc1CN(C)Cc1nc(-c2cccc(Cl)c2)no1,-6%,12%[46.1 µM],0%,51%[activator],x,x,0%,x
O=C(CN1C(=O)CSCC1=O)NCc1ccc(F)cc1,1%,16%,-8%,0%,13%,-10%,6%,0.2%
CN1CCN(C(=O)/C(=C\c2cccs2)NC(=O)c2ccccc2)CC1,-6%,6%,1%,4%,x,-3%,12%,x
Cc1cc(C)nc(NS(=O)(=O)c2ccc(NC(=O)c3ccccc3O)cc2)n1,x,6%[46.1 µM],x,68%[activator],12%,26%[46.1 µM],x,-6.1%
O=C(Nc1cccc(Cl)c1)Nc1ccccc1C(=O)O,6%,x,0%,-6%,x,x,-19%,x
CC(C)(NC(=O)N1CCCC1)c1cccc(C(C)(C)NC(=O)N2CCCC2)c1,-11%,11%,-4%,-36%,4%,0%,18%,-4.6%
COc1cccc(CC(=O)Nc2nc3ccccc3[nH]2)c1,7%,-27%[46.1 µM],0%,33%[activator],x,u,-9%,x
CC(C)NC(=O)CN(c1cccc(Br)c1)S(C)(=O)=O,-14%,12%,0%,11%,8%,-8%,-2%,0.7%
COC(=O)c1ccc(OC)c(CN2CCCN(Cc3ccc(F)cc3)S2(=O)=O)c1,15%,u,1%,-21%,x,u,3%,x
COc1cc(OC)cc(C(=O)N[C@H](C(=O)Nc2cc(F)ccc2C)C(C)C)c1,5%,20%[46.1 µM],0%,12%,x,15%,8%,x
O=C(NC(=O)c1c(F)cccc1F)Nc1cc(Cl)c(F)c(Cl)c1F,4%,x,1%,-12%,x,x,13%,x
Cc1nc2sc(C(c3ccco3)N3CC(C)OC(C)C3)c(O)n2n1 (stereo unspecified),16%,22%,8%,18%,-1%,22%,0%,-3.5%
O=C(N/N=C/c1cccs1)c1cc(-c2ccc3ccccc3c2)n[nH]1,16%,u,-13%,0%,u,-20%,-1%,-2.4%
Nc1nonc1-n1nnc(C(=O)N/N=C/c2cccnc2)c1-c1ccccc1,-3%,x,4%,-18%,x,x,5%,x
O=C(CSc1nnc(-c2cccs2)n1Cc1ccco1)Nc1ccc2c(c1)OCO2,-36%,-16%&-16%,2%,-20%,4%,5%,15%,-6.4%
O=C(OCc1ccc(Cl)c(Cl)c1)c1ccc[nH]1,-66%,-25%,-33%,34%[activator],x,1%,-21%,x
O=C(CS(=O)(=O)Cc1ccccc1)Nc1ccc(S(=O)(=O)N2CCOCC2)cc1,-5%,0%,3%,52%[activator],8%,-1%,-17%,3.7%
c1ccc(-c2ccccc2OCCCN2CCCC2)cc1,11%,5.6µM*,-12%,-20%,-9%,u,-6%,2.7%
Cc1ccc(CS(=O)Cc2ccc(C(=O)NC3CCCC(C)C3C)o2)cc1 (stereo unspecified),8%,x,-1%,4%,x,x,2%,x
C=C1CCC(O)C2(C)CCC3C(C)C(=O)OC3C12O (stereo unspecified),9%,4%[46.1 µM],0%,-9%,x,-8%[46.1 µM],8%,x
c1ccc(CCn2nnnc2C(c2cccnc2)N2CCN(c3nc4ccccc4s3)CC2)cc1 (stereo unspecified),-106%,u,-31%,x,u,u,-3%,-5.9%
Cc1nn(C2CCOC(C)(C)C2)c2c1C(c1ccc(OC(C)C)cc1)SCC(=O)N2 (stereo unspecified),-20%,u,-1%,-17%,u,-12%,-5%,1.8%
O=C(Nc1cccnc1)c1ccc(CSc2ccccc2)cc1,x,4%[46.1 µM],0%,5%,x,21%,-17%,x
C=C(C)C1(O)OC(=O)C=C1OC (stereo unspecified),2%,x,2%,-2%&-9%,-7%,x,-9%,3.4%
O=C(Cc1ccc([N+](=O)[O-])cc1)N/N=C/c1ccc([N+](=O)[O-])o1,10%,x,0%,-13%,x,x,-8%,x
COC(=O)CNC(=O)C(Cc1c[nH]c2ccccc12)NC(=O)Oc1ccccc1 (stereo unspecified),-4%,-12%[46.1 µM],2%,1%,x,4%,-2%,x
COc1ccc(CNC(=O)c2ccc(S(=O)(=O)N3CCOCC3)cc2)cc1,x,-3%[46.1 µM],0%,-26%,x,-19%,-10%,x
COc1ccc(CNC(=O)/C=C/c2cc([N+](=O)[O-])ccc2OC(F)F)cc1,2%,1%,0%,6%,-7%,6%,1%,1.0%
O=[N+]([O-])c1ccc(NC(=S)N2CCc3ccccc3C2)cc1,-26%,u,-4%,51%[activator],0%,-2%,x,-8.3%
CCOc1ccc(-n2cnnn2)cc1S(=O)(=O)NC1CC1,8%,-2%,11%,43%[activator],-22%,15%,-8%,2.1%
C=C(c1ccccc1O)n1ccnc1,2%,3%,1%,-15%,x,u,8%,x
Cc1ccc(C)n1-c1ccc(-c2nnco2)cc1,5%,1%,-2%,x,-3%,x,x,-0.8%
O=C(Nc1ccc2c(c1)OCO2)c1ccc(S(=O)(=O)NCC2CCCO2)cc1 (stereo unspecified),-1%,9%,1%,24%,13%,-3%,-3%,5.8%
CCC(=O)c1ccc(SC(=O)N(C)C)cc1O,-2%,x,1%,47%[activator],x,x,9%,x
COc1cc(C(C)=O)ccc1OCC(=O)Nc1ccccc1N1CCCCC1,x,u,-23%,u,x,u,-11%,x
Cn1c(/C=C/N2CCOCC2)c(C(=O)c2ccc(Br)cc2)c(=O)n(C)c1=O,-7%,3%,x,-18%,-12%,-1%,0%,-6.5%

# Further records.
SMILES,NS1 function inh,Marburg entry inh,SARS PLpro yeast,2A StopGo,Cruzain inh noDet,Lassa entry inh,RE007 growth inh,Cruzain inh Det
CC(Oc1ccc2c3c(c(=O)oc2c1)CCCC3)C(=O)NCc1ccncc1 (stereo unspecified),-18%,x,-3%,-29%,x,x,-8%,x
COc1ccc(NC(=O)CCN2CCN(c3cccc(Cl)c3)CC2)cc1,x,u,x,-10%,-10%,u,x,-1.1%
CCN(C(=O)COC(=O)c1cc(OC)c(OC)cc1[N+](=O)[O-])C1CCS(=O)(=O)C1 (stereo unspecified),5%,4%[46.1 µM],1%,-6%,x,11%,-5%,x
CCOc1ccc(NC(=O)Nc2ccc(N(C)C(C)=O)cc2)cc1,-16%,-6%,x,-4%,5%,-7%,7%,7.9%

# No enrichment for hits; about 4.7% have a hit in one of these screens.
